# Screening data from PubChem.
# Ecoli rRNA inh: reduced GFP signal of wild-type E. coli, primary screen, bacterial rRNA inhibitor project, GFP/RFP fluorescence, OD600, single point; E. coli WT GFP vs humanized-ribosome RFP mutants, 24 h; active compounds read low; DMSO median 0, no signal -100; GFP signal change (wild-type ribosome), % (no concentration beside the values); 350,000 compounds, 1.6% hits; AID 720706, 2013;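 active = significant combined selectivity score with lowered wild-type GFP, culture density cut under 30%, mutant RFP and density less affected; inactive = any of these conditions unmet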; note: one replicate is shown; some compounds called inactive have numbers as strong as hits
# AF4-AF9 inh: inhibitors of AF4 peptide binding to AF9, primary screen, biochemical, AlphaScreen, biotin-AF4 peptide, FLAG-AF9, single point. AID 651704, 2012. Protein AF-9 (Homo sapiens), P42568. inhibition, % at 10 µM. 350,000 compounds, 0.47% hits;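 active = every replicate reaching a set inhibition limit, whatever the replicate mean, cut at about 25% in these data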;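 note: 0% = plate neutral control median and 100% = total signal loss; the record names both 10 and 1 µM as test concentration; the first replicate is given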
# Target sequence (P42568 whole entry, looked up): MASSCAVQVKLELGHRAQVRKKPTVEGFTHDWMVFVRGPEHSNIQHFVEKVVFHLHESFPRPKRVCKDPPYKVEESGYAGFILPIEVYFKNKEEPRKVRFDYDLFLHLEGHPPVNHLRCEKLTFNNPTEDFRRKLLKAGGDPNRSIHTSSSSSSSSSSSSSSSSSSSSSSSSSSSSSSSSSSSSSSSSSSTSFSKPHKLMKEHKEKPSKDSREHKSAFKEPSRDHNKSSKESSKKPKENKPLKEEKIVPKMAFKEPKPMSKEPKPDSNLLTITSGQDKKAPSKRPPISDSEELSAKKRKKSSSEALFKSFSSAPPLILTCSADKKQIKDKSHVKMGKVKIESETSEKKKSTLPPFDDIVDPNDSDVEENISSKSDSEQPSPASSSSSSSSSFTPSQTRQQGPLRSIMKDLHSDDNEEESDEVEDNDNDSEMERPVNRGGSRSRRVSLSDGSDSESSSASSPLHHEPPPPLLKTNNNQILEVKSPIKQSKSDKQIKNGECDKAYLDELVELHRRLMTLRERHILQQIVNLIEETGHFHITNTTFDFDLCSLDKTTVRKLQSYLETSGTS
# Ecoli rRNA inh OD600: further read-out of Ecoli rRNA inh, marked with its call; OD600 change, %; measured here: OD600 growth;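 optical density of the mix in the first replicate; 0 = DMSO median and -100 = no signal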
# Ecoli rRNA inh RFP: recorded beside Ecoli rRNA inh, whose call it bears; RFP signal change, %; measured here: RFP humanized mutant strains;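 first replicate; 0 = DMSO median and -100 = no signal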
# * hit, by the source's call; & = joins results of further samples. A portion of the library, so the mix of outcomes need not match the whole.
SMILES,Ecoli rRNA inh,Ecoli rRNA inh OD600,Ecoli rRNA inh RFP,AF4-AF9 inh
C[C@@H]1CN([C@@H](C)CO)C(=O)c2c(c3ccccc3n2C)-c2ccccc2CO[C@H]1CN(C)Cc1cccc(O)c1,1,-22,8.1,6.9
C[C@@H]1CN([C@@H](C)CO)C(=O)Cc2cc(NC(=O)C3CC3)ccc2O[C@H]1CN(C)S(=O)(=O)c1cccs1,-5,-19,1.1,0.0
OC[C@@H]1[C@H](c2ccc(C3=CCCCC3)cc2)[C@@H]2CN(CCC(F)(F)F)CCCCN12,-57,-77,-16,15
C[C@@H]1CCCCO[C@H](CN(C)C(=O)Nc2cccc3ccccc23)[C@@H](C)CN([C@H](C)CO)C(=O)c2cc(NC(=O)c3ccncc3)ccc2O1,1,2,4.1,1.8
CO[C@@H]1CN(C)C(=O)c2cc(NC(=O)C3CCOCC3)ccc2OC[C@@H](C)N(C(=O)C2CCOCC2)C[C@H]1C,2,-1,-1.7,1.6
COCC(=O)N(C)C[C@@H]1Oc2ncc(-c3ccc(C)cc3)cc2C(=O)N([C@H](C)CO)C[C@H]1C,-1,4,-2.7,-2.4
COc1ccc(S(=O)(=O)Nc2cccc3c2O[C@H](CN(C)C(=O)NC2CCCCC2)[C@H](C)CN([C@H](C)CO)C3=O)cc1,-2,0,0.1,9.1
CCCNC(=O)Nc1ccc2c(c1)OC[C@@H](C)N(Cc1ccncc1)C[C@@H](C)[C@@H](OC)CN(C)C2=O,-5,0,0.1,1.9
CC(C)C[C@H]1CN(CCCC[C@@H]2CNC(=O)C(=O)N2CC2CCCCC2)C(=O)C(=O)N1CCc1ccc(O)cc1,-11,0,2.8,-2.1
CC(C)NC(=O)N(C)C[C@H]1OCCCC[C@@H](C)Oc2ccc(NC(=O)c3ccccc3)cc2C(=O)N([C@H](C)CO)C[C@@H]1C,-1,7,-0.2,-8.9
COc1cccc(S(=O)(=O)N2C[C@H](O)COC[C@@H]3O[C@H](CC(=O)Nc4ccccc4)CC[C@H]32)c1,-2,-2,-4.3,-3.1
Cc1noc(C)c1NC(=O)Nc1ccc2c(c1)C(=O)N([C@H](C)CO)C[C@@H](C)[C@H](CN(C)C(=O)Nc1ccc3c(c1)OCO3)OCCCC[C@@H](C)O2,-2,1,1.1,7.0
COc1ccc(NC(=O)N(C)C[C@H]2Oc3c(NC(=O)c4cnccn4)cccc3C(=O)N([C@H](C)CO)C[C@H]2C)cc1,-1,1,-1.4,-3.7
O=C(c1cc2ccccc2oc1=O)N1CCCN(C(=O)c2cc3ccccc3oc2=O)CC1,10,3,-0.4,-28
O=C(c1ccccc1F)N1CC(=O)N2[C@@H](CO)[C@@H](c3ccc(-c4cccnc4)cc3)[C@@H]2C1,1,-2,-2.1,-1.0
C[C@@H]1CCCCO[C@H](CN(C)C(=O)Nc2ccc(F)cc2)[C@@H](C)CN([C@H](C)CO)C(=O)c2cc(NC(=O)C3CCCCC3)ccc2O1,4,3,-0.7,-4.4
Cc1noc(C)c1NC(=O)Nc1ccc2c(c1)C(=O)N([C@H](C)CO)C[C@H](C)[C@@H](CN(C)S(C)(=O)=O)OCCCC[C@H](C)O2,3,13,-2.2,-3.7
CCC(=O)Nc1ccc2c(c1)C(=O)N(C)[C@H]1CC[C@H](CC(=O)NCCN3CCCCC3)O[C@H]1CO2,3,10,-3.3,0.2
C[C@H]1CN([C@@H](C)CO)C(=O)c2cccc(NS(C)(=O)=O)c2O[C@@H]1CN(C)Cc1ccccc1,1,7,-3.3,-0.7
CCC(=O)Nc1ccc2c(c1)C(=O)N(C)[C@H]1CC[C@H](CC(=O)Nc3ccccc3OC)O[C@@H]1CO2,2,1,-1.3,-5.6
C[C@@H]1CN([C@H](C)CO)C(=O)c2cc(NC(=O)Nc3cccc4ccccc34)ccc2O[C@@H](C)CCCCO[C@H]1CN(C)C(=O)c1ccccc1,-4,3,0.7,0.1
C[C@@H]1CN([C@H](C)CO)S(=O)(=O)c2ccc(C#CCC3CCCC3)cc2O[C@H]1CN(C)C(=O)CC1CC1,2,-11,13,-2.1
CO[C@@H](CN(C)Cc1ccc2c(c1)OCO2)[C@@H](C)CN(C(=O)Nc1ccc(F)cc1)[C@@H](C)CO,0,1,0.6,1.4
C[C@H](CO)N1C[C@H](C)[C@H](CN(C)C(=O)Nc2ccc(C(F)(F)F)cc2)Oc2ccc(NC(=O)C3CC3)cc2C1=O,-10,0,-0.6,-1.3

# Whole records as entered above:
# `CO[C@@H](CN(C)Cc1ccc2c(c1)OCO2)[C@@H](C)CN(C(=O)Nc1ccc(F)cc1)[C@@H](C)CO` is entered as Ecoli rRNA inh = 0; Ecoli rRNA inh OD600 = 1; Ecoli rRNA inh RFP = 0.6; AF4-AF9 inh = 1.4
# `COc1ccc(NC(=O)N(C)C[C@H]2Oc3c(NC(=O)c4cnccn4)cccc3C(=O)N([C@H](C)CO)C[C@H]2C)cc1` is entered as Ecoli rRNA inh = -1; Ecoli rRNA inh OD600 = 1; Ecoli rRNA inh RFP = -1.4; AF4-AF9 inh = -3.7

# (list continues)
SMILES,Ecoli rRNA inh,Ecoli rRNA inh OD600,Ecoli rRNA inh RFP,AF4-AF9 inh
COc1ccccc1-c1cn(CC[C@@H]2CC[C@H](NC(=O)C3CCCC3)[C@@H](CO)O2)nn1,-3,-10,4.3,-5.8
COc1cccc(-c2cn(CC[C@H]3CC[C@@H](NS(=O)(=O)c4ccccc4Cl)[C@@H](CO)O3)nn2)c1,-7,-19,0.8,0.3
C[C@H](CO)N1C[C@H](C)[C@H](CN(C)C(=O)C2CC2)Oc2ncc(C#CC3CCCC3)cc2C1=O,1,-1,-0.8,-3.1
OC(c1ccc(F)c(F)c1)c1ncc(-c2cccc(C(F)(F)F)c2)[nH]1 (configuration not stated),-24,-55,3.6,12
CNc1ccc(Cl)cc1S(=O)(=O)c1ccccc1[N+](=O)[O-],4,4,1.0,1.0
C[C@@H]1CCCCO[C@H](CN(C)Cc2ccc(C(F)(F)F)cc2)[C@H](C)CN([C@H](C)CO)C(=O)c2cc(NC(=O)CCC(F)(F)F)ccc2O1,-3,-4,-0.8,3.0
Cc1cc(C)n2cc(CSc3nnc(-c4ccccc4)c(-c4ccccc4)n3)nc2n1,10,3,-4.4,-3.8
CC(C)CC#Cc1ccc2c(c1)O[C@H](CN(C)Cc1ccncc1)[C@@H](C)CN([C@H](C)CO)S2(=O)=O,-5,-6,1.7,1.0
C[C@H](CO)N1C[C@H](C)[C@@H](CN(C)C(=O)C2CC2)Oc2cc(C#C[C@@H](C)O)ccc2S1(=O)=O,3,-4,0.7,-2.1
COCCNC(=O)C1(C)CCCN(C(=O)c2cccc3ccccc23)C1 (configuration not stated),3,3,-2.1,-0.9
Cn1cnc(CCNC(=O)C[C@H]2CC[C@H]3[C@@H](COC[C@@H](O)CN3C(=O)C3CCCC3)O2)c1,12,18,5.2,-1.7
CSc1ccc(CN2CCC2(C)C(=O)NC2CCN(Cc3ccccc3)CC2)cc1 (configuration not stated),4,7,3.0,3.1
O=C(Nc1ccccc1F)N1CCCCN2[C@@H](CO)[C@@H](c3ccc(C4=CCCC4)cc3)[C@@H]2C1,-58,-73,-14,-0.2
CCCNC(=O)C[C@H]1CC[C@H]2[C@@H](COc3ccc(NC(=O)Nc4ccc(C#N)cc4)cc3C(=O)N2C)O1,-2,0,-0.8,-1.7
C[C@H](CO)N1C[C@H](C)[C@@H](CN(C)C(=O)c2cccc(F)c2)Oc2ncc(-c3cccc(F)c3)cc2C1=O,-9,-13,4.1,0.6
CC(C)CC#Cc1ccc2c(c1)O[C@H](CN(C)C(=O)Cc1cccnc1)[C@@H](C)CN([C@H](C)CO)S2(=O)=O,-2,-1,-0.9,4.0
CC(C)NC(=O)N[C@@H]1C=C[C@H](CC(=O)NC2Cc3ccccc3C2)O[C@@H]1CO,4,9,-0.9,-10
CC(C)NC(=O)N(C)C[C@H]1Oc2ccc(NC(=O)CCCCCC(=O)Nc3ccccc3N)cc2C(=O)N([C@H](C)CO)C[C@@H]1C,1,-1,-2.5,-2.3
COc1cccc(C(=O)NCCCc2ccccc2)c1OC,2,4,-3.0,-1.2
CC(C)NC(=O)Nc1ccc2c(c1)CC(=O)N([C@@H](C)CO)C[C@@H](C)[C@H](CN(C)C)O2,5,6,-0.9,-2.0
O=C(CN1CCOCC1)N1CCCCN2[C@H](C1)[C@H](c1ccc(-c3ccccc3)cc1)[C@@H]2CO,3,-1,-0.1,0.4
COc1ccc(C#Cc2ccc3c(c2)O[C@H](CN(C)C)[C@@H](C)CN([C@@H](C)CO)S3(=O)=O)cc1,7,-23,28,15
C[C@H]1CN([C@@H](C)CO)C(=O)c2cc(C#CCc3ccccc3)cnc2O[C@@H]1CN(C)Cc1cccc(C(=O)O)c1,-3,3,-3.4,3.1
CO[C@@H]1CN(C)C(=O)c2ccc(NS(=O)(=O)c3cn(C)cn3)cc2OC[C@@H](C)N(Cc2cccc(F)c2)C[C@@H]1C,-8,-17,2.1,-0.8
COc1cccc(-c2ccc(C3[C@@H]4CN(S(=O)(=O)c5cccc(OC)c5)C[C@H]3N4)cc2)c1 (some centres not stated),-6,2,4.1,-4.7&-5.8
O=C(Nc1ccc(F)cc1)N1CCCCN2[C@H](CO)[C@H](c3ccc(C#Cc4ccccc4)cc3)[C@@H]2C1,1,-6,5.1,-4.7
Cc1ccccc1-c1ccc2c(c1)O[C@@H](CN(C)C)[C@@H](C)CN([C@@H](C)CO)S2(=O)=O,5,8,-1.1,-0.9
C[C@H](CO)N1C[C@H](C)[C@@H](CN(C)C(=O)Nc2ccc3c(c2)OCO3)OCCCC[C@H](C)Oc2ccc(NC(=O)c3ccncc3)cc2C1=O,-3,-4,0.1,-2.3
COCC#Cc1ccc2c(c1)O[C@@H](CN(C)C(=O)NC(C)C)[C@@H](C)CN([C@@H](C)CO)S2(=O)=O,2,6,-1.2,1.0
C[C@@H]1CN([C@H](C)CO)C(=O)c2cc(C#CC(C)(C)O)cnc2O[C@H]1CN(C)Cc1ccccn1,1,-2,-3.3,-5.9
CC(=NOC(=O)C1CCCCC1)c1nccs1,16,9,4.7,-0.1
C[C@@H]1CN([C@H](C)CO)S(=O)(=O)c2ccc(C#CC(C)(C)O)cc2O[C@H]1CN(C)C,0,0,-1.4,-1.2
CC(=O)N1[C@@H]2Cn3c(ccc(-c4cccc(F)c4)c3=O)[C@H]1[C@@H](C(=O)NCCCN(C)C)[C@@H]2CO,4,8,-1.5,-2.2
CO[C@H](CN(C)C(=O)c1ccccc1F)[C@@H](C)CN([C@H](C)CO)S(=O)(=O)c1ccccc1,3,7,-0.7,-27
CCC(=O)N1CC[C@H]2[C@H](CO)Nc3ccc(C#Cc4ccc(OC)cc4)cc3[C@H]21,-4,-2,-5.6,26*
COc1ccc(NC(=O)N(C)C[C@H]2OCCCC[C@@H](C)Oc3ccc(NC(=O)Nc4ccccc4)cc3C(=O)N([C@@H](C)CO)C[C@H]2C)cc1,1,12,-1.1,-3.3
COc1ccc(NC(=O)N(C)C[C@@H]2Oc3ccc(NC(=O)C4CC4)cc3CC(=O)N([C@H](C)CO)C[C@H]2C)cc1,2,12,-0.1,-18
O=C(NCc1ccc(F)cc1)[C@@H]1[C@@H](CO)[C@@H]2Cn3c(cccc3=O)[C@H]1N2CC1CCCC1,-6,-11,-3.6,1.2
C[C@@H]1CN([C@@H](C)CO)C(=O)c2cc(-c3cncnc3)cnc2O[C@H]1CN(C)CC1CCOCC1,8,15,-6.2,-4.2
C[C@@H]1CN([C@H](C)CO)C(=O)Cc2cc(NS(=O)(=O)c3ccc(Cl)cc3)ccc2O[C@H]1CN(C)C(=O)Nc1ccc(C(F)(F)F)cc1,-3,-3,0.7,-0.3
COc1ccc(Cc2c(-c3ccc(OC)c(OC)c3)nc3c(C)cc(Br)cn23)c(C)c1,-30,-67,-3.9,3.3
CC1(C(=O)NC2CCCC2)CCC(=O)N1CCCn1ccnc1 (configuration not stated),0,1,-9.9,-2.2
CCc1nc2c(OCc3ccc(Cl)cc3)cccn2c1N(C)C(=O)c1ccco1,4,-17,4.7,5.4

# Arranged by number of heavy atoms (ascending): some entries from above
SMILES,Ecoli rRNA inh,Ecoli rRNA inh OD600,Ecoli rRNA inh RFP,AF4-AF9 inh
CC(=NOC(=O)C1CCCCC1)c1nccs1,16,9,4.7,-0.1
CC1(C(=O)NC2CCCC2)CCC(=O)N1CCCn1ccnc1 (configuration not stated),0,1,-9.9,-2.2
C[C@@H]1CN([C@H](C)CO)S(=O)(=O)c2ccc(C#CC(C)(C)O)cc2O[C@H]1CN(C)C,0,0,-1.4,-1.2
COc1ccc(Cc2c(-c3ccc(OC)c(OC)c3)nc3c(C)cc(Br)cn23)c(C)c1,-30,-67,-3.9,3.3
CO[C@H](CN(C)C(=O)c1ccccc1F)[C@@H](C)CN([C@H](C)CO)S(=O)(=O)c1ccccc1,3,7,-0.7,-27
C[C@@H]1CN([C@H](C)CO)C(=O)c2cc(C#CC(C)(C)O)cnc2O[C@H]1CN(C)Cc1ccccn1,1,-2,-3.3,-5.9
COc1ccc(NC(=O)N(C)C[C@@H]2Oc3ccc(NC(=O)C4CC4)cc3CC(=O)N([C@H](C)CO)C[C@H]2C)cc1,2,12,-0.1,-18
C[C@@H]1CN([C@H](C)CO)C(=O)Cc2cc(NS(=O)(=O)c3ccc(Cl)cc3)ccc2O[C@H]1CN(C)C(=O)Nc1ccc(C(F)(F)F)cc1,-3,-3,0.7,-0.3
COc1ccc(NC(=O)N(C)C[C@H]2OCCCC[C@@H](C)Oc3ccc(NC(=O)Nc4ccccc4)cc3C(=O)N([C@@H](C)CO)C[C@H]2C)cc1,1,12,-1.1,-3.3
